Compound activity as filed in PubChem.
Mtb betalactam – beta-lactam sensitization of Mtb H37Rv, H37Rv; inhibition, % at 25 µM; 330,000 tested, 0.27% active; M. tuberculosis H37Rv growth with meropenem, percent inhibition; hits of this screen are not shown here;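 active means about 74% or more and at least 40 points above the plate without the antibiotic, then above 30% in a dose series; inconclusive means first-round hits that could not be retested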;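 further: growth measured after seven days incubation then overnight dye step; 0% = bacteria only wells and 100% = bacteria with antibiotic; twin plates without the antibiotic show which effects depend on it; some results filed as inactive read as strong as hits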
Arbovirus anti – antivirals against arbovirus infection, primary screen, cell-based, full library, 10K replicate subset; arbovirus infection cell-based antiviral screen; inhibition, % at 10 µM; 200,000 tested, 0.37% active;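 active means inhibition from about 30%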;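 further: bluetongue infection of BSR cells; cell survival read as ATP light after 72 h; 0% = infected wells without compound and 100% = uninfected wells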
Mtb H37Rv – M. tuberculosis H37Rv growth inhibitors, H37Rv strain (AID 1626); M. tuberculosis H37Rv growth inhibition; higher % means a stronger effect; one-dose inhibition, % at 10 µM; IC50 in µM for titrated hits; 220,000 tested, 0.95% active;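 active means confirmed in a dose series; inconclusive means inhibition above 80% but not taken into the dose series; inactive means below 80% or under 30% at every dose of the series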;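 further: bacteria incubated seven days before Alamar blue readout; 0% = bacteria only wells and 100% = bacteria with antibiotic wells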
YopH PTP inh – YopH tyrosine phosphatase inhibitors, primary screen, biochemical, fluorescence Ex485/Em525 | YopH tyrosine phosphatase [Yersinia enterocolitica] | inhibition, %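 (about 10 µM by stock and volumes)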 | 140,000 tested, 0.16% active | AID 898, 2007;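 active means inhibition of 50% or more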;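 further: controls were vehicle for no effect and minimum signal wells for full effect; inactives centre near -20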
RecA intein inh – Mtb RecA intein splicing inhibitors, primary screen, biochemical, fluorescence, HTS; Protein RecA (Mycobacterium tuberculosis (strain ATCC 25618 / H37Rv)), P9WHJ3; cell-free RecA intein splicing; inhibition, %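 (about 9 µM by stock and volumes)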; 290,000 tested, 0.75% active; in the data active means inhibition above about 30%; inconclusive means no clear call, values can overlap the other calls;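 further: 0% = vehicle wells and 100% = reference inhibitor control wells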
Target sequence (P9WHJ3 whole entry, looked up): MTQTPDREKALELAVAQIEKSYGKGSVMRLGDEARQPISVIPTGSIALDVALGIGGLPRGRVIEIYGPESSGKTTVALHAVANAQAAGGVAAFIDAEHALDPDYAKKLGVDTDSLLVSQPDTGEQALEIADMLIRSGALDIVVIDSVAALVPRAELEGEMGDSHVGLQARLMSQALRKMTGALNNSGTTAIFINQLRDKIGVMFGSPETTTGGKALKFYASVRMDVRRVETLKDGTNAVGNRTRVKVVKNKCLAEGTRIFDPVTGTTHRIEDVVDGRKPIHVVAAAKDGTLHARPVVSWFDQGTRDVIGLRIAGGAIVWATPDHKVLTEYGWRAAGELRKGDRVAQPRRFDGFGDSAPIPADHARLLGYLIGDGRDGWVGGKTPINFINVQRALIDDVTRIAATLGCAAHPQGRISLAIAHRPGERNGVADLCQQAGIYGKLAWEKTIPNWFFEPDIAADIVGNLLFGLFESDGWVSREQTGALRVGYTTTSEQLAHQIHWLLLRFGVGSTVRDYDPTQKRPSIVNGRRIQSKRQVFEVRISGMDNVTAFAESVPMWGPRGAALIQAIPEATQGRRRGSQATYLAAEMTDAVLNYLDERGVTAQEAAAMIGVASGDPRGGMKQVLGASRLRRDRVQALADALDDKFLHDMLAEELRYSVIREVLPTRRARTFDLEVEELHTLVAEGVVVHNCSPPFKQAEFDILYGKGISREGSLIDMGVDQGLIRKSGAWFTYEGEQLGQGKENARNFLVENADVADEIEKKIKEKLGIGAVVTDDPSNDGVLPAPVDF
Arbovirus anti repeat – second read-out of Arbovirus anti, no call of its own (marks repeat the call); inhibition, %; measured here: 10K subset replicate screen; many hits read low in the repeat;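 first of two repeat runs on a subset; 0% = infected and 100% = uninfected wells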
An asterisk follows results filed as active; ? = inconclusive; . = no result given. These rows are one share of the data (hit frequency here may not be typical).

SMILES	Mtb betalactam	Arbovirus anti	Mtb H37Rv	YopH PTP inh	RecA intein inh	others
CCn1cc(C(=O)N(C)c2cc(C)ccc2OC)c2cc(OC)c(OC)cc2c1=O	-4	.	.	.	2.5
O=C(NCC(=O)N1CCN(S(=O)(=O)c2cccc(F)c2)CC1)c1ccc(Br)o1	-5	.	.	.	1.5
Nc1nc(NCc2ccccc2Cl)n(-c2ccccc2)n1	9	.	.	.	1.0
CCOC(=O)N/N=C/c1ccc(C)o1	-3	8	3%	-24	5.0
c1ccc(-c2cnc(-c3ccccc3)nn2)cc1	-1	.	-2%	.	0.6
CC(O)c1c(-c2ccccc2)nn(C)c1Cl (stereo unspecified)	-7	7	4%	.	-2.1
Cc1ccc(S(=O)(=O)C2(C(=O)NCc3ccc4c(c3)OCO4)CC2)cc1	2	7	0%	-22	-3.3
COc1cc(-c2c(C#N)c(N)nc3[nH]c(=S)[nH]c(=O)c23)ccc1O	-2	.	.	.	-1.0
O=C(NCCCNC(=O)c1cccnc1)c1ccc(Cl)cc1	-1	.	.	.	0.2
CCOc1cccc(CN2CCC(n3nccc3NC(=O)c3ccc4c(c3)OCO4)CC2)c1	1	.	.	.	-1.0
N=c1c2c(-c3ccccc3)c(-c3ccccc3)n(Cc3ccco3)c2ncn1CCCO	8	.	15%	.	7.0
O=C(NCC1CCCO1)C(c1ccc(N2CCOCC2)cc1)N(C(=O)Cn1nnc2ccccc21)c1ccccc1F (stereo unspecified)	0	0	1%	.	-0.3
COc1ccc(OC)c(C(=O)Cn2nnc(-c3ccc(N4CCOCC4)cc3)n2)c1	-3	.	.	.	0.3
CCCC(=O)Nc1nnc(COC)s1	0	1	-2%	33	.
N#CC1(NC(=O)COC(=O)c2nc(Cl)ccc2Cl)CCCCC1	1	.	.	.	-0.5
CNC(=S)N(Cc1cccs1)Cc1cc2ccc(OC)cc2[nH]c1=O	4	-6	-3%	-30	-0.3
CCN(CC)CCCn1c2c(c(SCC(=O)Nc3ccccc3Cl)nc1=O)CCC2	-12	.	.	.	0.2
CCCCOc1ccc(C(=O)NCCC(=O)NCCCC(=O)OCC)cc1	1	.	-3%	.	1.2
CCNC(=S)NNC(=O)c1cc(CC(C)C)nc2ccccc12	-15	4	11%	-16	2.9
Cc1cccc(NC(=O)C2CCN(S(=O)(=O)c3ccc4c(c3)NC(=O)CO4)CC2)c1	-13	.	.	.	9.6
CN1CCN(CCN2CCn3c2nc2ccccc23)CC1	5	9	9%	-30	0.0
O=c1c2ccccc2nc(-c2ccc(Cl)cc2Cl)n1-c1nccs1	4	12	6%	-49	3.4
O=C(Nc1cccc(-c2nnc(-c3ccccc3)o2)c1)C1CC1	-1	-11	4%	.	0.9
COc1cccc(CCNC(=O)C2CCCN(c3ncnc4c3nc3n4CCCCC3)C2)c1OC (stereo unspecified)	2	.	.	.	-0.3
CCc1ccccc1NC(=O)Nc1cnccn1	-14	.	.	.	-3.4
Cc1nnc(CN(C)Cc2cn[nH]c2-c2ccc(-c3ccccc3)cc2)o1	-2	11	-10%	.	1.9
CC1CCCC(NC(=O)CCNC(=O)c2ccc(Br)cc2)C1C (stereo unspecified)	1	.	.	.	-5.1
CC1CCc2c(sc3nn[nH]c(=O)c23)C1 (stereo unspecified)	6	4	-8%	-9	-3.3
COC(=O)c1nc2n(n1)C(c1cccc(Cl)c1)C1=C(CC(C)(C)CC1=O)N2 (stereo unspecified)	0	7	2%	-37	-1.7	Arbovirus anti repeat=1
Cc1c(OCC(=O)NC2CCN(Cc3ccccc3)CC2)ccc2c3c(c(=O)oc12)CCC3	2	.	.	.	-1.9
COc1ccc2cc(C3CC(c4cccs4)=NN3S(C)(=O)=O)c(Cl)nc2c1 (stereo unspecified)	-6	-1	1%	-11	-4.1
COc1ccccc1-c1cc(C2CC2)nc(N)c1C#N	.	2	5%	-34	1.8	Arbovirus anti repeat=-2
CN(CCc1ccccn1)S(=O)(=O)c1ccccc1F	4	.	-4%	-32	-0.1
C=CCOc1c(Br)cc(/C=N/O)cc1OCC	3	-18	8%	-21	0.0
CCc1nnc(NC(=O)c2cc(-c3cccnc3)nc3ccccc23)s1	4	6	4%	.	5.5
Cc1ccc([N+](=O)[O-])c(OCCN2CCc3ccccc3C2)c1	-7	.	.	.	-3.2
C/C(=N\NC(=O)CNC(=O)c1ccc(Br)cc1)c1ccco1	5	.	.	.	-4.4
Cc1cc(C)c(C(=O)COC(=O)CCNS(=O)(=O)c2c(Cl)cccc2Cl)cc1C	7	1	0%	-10	4.2
COC(=O)c1ccccc1NC(=O)Nc1cnccn1	-16	3	-7%	-28	-2.4
Cc1ccc(S(=O)(=O)N2CCN(C(=O)COC(=O)C3CCC3)CC2)cc1	1	.	.	.	0.3
O=C(CCCc1ccccc1)NCCc1ccc(F)cc1	2	.	.	.	5.3
CCCn1nc2cc(C(=O)NCc3ccc(OC)cc3)ccc2c1OCC	-2	7	-10%	-1	1.5
CCN1CCN(Cc2cccc(Oc3ccccc3)c2)CC1	-2	-23	-5%	-14	1.7
COc1ccc(C2Nc3ccccc3C(=O)N2c2ccc(C)cc2)cc1Cn1nnc2ccccc21 (stereo unspecified)	-6	5	-4%	-22	-0.1
COC(=O)c1ccc(COC(=O)c2ccc(CS(=O)(=O)c3ccc(C)cc3)cc2)cc1	0	1	-7%	-14	-0.3
CCOc1cc(/C=C2\CCCC(C(=O)C(F)(F)F)=C2O)ccc1O	30	8	3%	-34	-1.5
Cc1ccc(OCCn2cc(C(=S)N3CCCC3)c3ccccc32)cc1C	-9	1	10%	-23	7.9
C=CCn1c(O)c(N=NC(=S)Nc2ccccc2C)c2cc(S(=O)(=O)N3CCOCC3)ccc21	-5	0	-10%	-22	.

Of the compounds above, 9 contain a Cl atom.
SMILES	Mtb betalactam	Arbovirus anti	Mtb H37Rv	YopH PTP inh	RecA intein inh	others
Nc1nc(NCc2ccccc2Cl)n(-c2ccccc2)n1	9	.	.	.	1.0
CC(O)c1c(-c2ccccc2)nn(C)c1Cl (stereo unspecified)	-7	7	4%	.	-2.1
O=C(NCCCNC(=O)c1cccnc1)c1ccc(Cl)cc1	-1	.	.	.	0.2
N#CC1(NC(=O)COC(=O)c2nc(Cl)ccc2Cl)CCCCC1	1	.	.	.	-0.5
CCN(CC)CCCn1c2c(c(SCC(=O)Nc3ccccc3Cl)nc1=O)CCC2	-12	.	.	.	0.2
O=c1c2ccccc2nc(-c2ccc(Cl)cc2Cl)n1-c1nccs1	4	12	6%	-49	3.4
COC(=O)c1nc2n(n1)C(c1cccc(Cl)c1)C1=C(CC(C)(C)CC1=O)N2 (stereo unspecified)	0	7	2%	-37	-1.7	Arbovirus anti repeat=1
COc1ccc2cc(C3CC(c4cccs4)=NN3S(C)(=O)=O)c(Cl)nc2c1 (stereo unspecified)	-6	-1	1%	-11	-4.1
Cc1cc(C)c(C(=O)COC(=O)CCNS(=O)(=O)c2c(Cl)cccc2Cl)cc1C	7	1	0%	-10	4.2

Further records:
SMILES	Mtb betalactam	Arbovirus anti	Mtb H37Rv	YopH PTP inh	RecA intein inh	others
O=C1CC(=O)N(c2ccccc2F)C(=O)N1	0	.	.	.	-1.2
CCc1ccc(NC(=O)Cn2nnc(C(=O)NCc3ccc(OC)cc3)c2N)cc1	-8	.	.	.	-1.6
NCC12CC3CC(C1)CC(c1ccc(Cl)cc1)(C3)C2	77	-31	56%	.	7.8
CCN(CC)S(=O)(=O)c1cccc(C(=O)N2CCCCC2)c1	-28	-2	-21%	-37	-1.9
Cc1nn(CC(=O)Nc2ccccn2)c(=O)c2ccccc12	-5	2	-5%	-32	-1.0
Cn1c(=O)[nH]c2nc[nH]c2c1=O	-4	.	.	.	-3.2
O=C(COC(=O)c1ccccc1NC(=O)c1ccco1)NC1CC1	83	5	17%	.	-0.3
O=c1cc(CO)oc(CN2CCC(Cc3ccccc3)CC2)c1O	1	-18	2%	-38	-0.3
CC(NC(=O)c1nn(C)c2c1CS(=O)(=O)c1ccccc1-2)c1ccccc1 (stereo unspecified)	-1	.	.	.	0.5
COc1ccc(CC(=O)NCc2cn3ccsc3n2)cc1	-3	-7	-4%	-31	0.6
O=C(N/N=C/c1ccco1)c1cc(C2CC2)nc2ccccc12	3	-3	3%	-23	2.2
Cc1cc(-c2onc(C)c2C(=O)Oc2ccc(Cl)cc2)no1	-2	.	-5%	.	5.0
O=C(Oc1cccc([N+](=O)[O-])c1)c1cc(-c2ccccc2)nc2ccccc12	-11	11	0%	-17	3.9
CSc1nc(N(C)C)nc(N2CC(=O)N(CCNS(=O)(=O)c3ccc(C)cc3)C2=N)n1	-4	-2	3%	-20	1.5
COc1ccc(OC)c(NC(=O)C2CCCC2)c1	8	-4	-3%	-29	-0.2
CC(C)S(=O)(=O)N1CCCC(C(=O)c2cccc(Cl)c2)C1 (stereo unspecified)	2	1	-8%	.	0.3
CCCSc1ncc(Cl)c(C(=O)Nc2ccc(S(=O)(=O)Nc3ncccn3)cc2)n1	-5	.	.	.	0.5
CC(C)(CO)NCC(O)COc1ccc2c(c1)CCC2 (stereo unspecified)	5	-5	2%	-37	-2.7
CCn1ncc(Br)c1C(=O)Nc1cc([N+](=O)[O-])ccc1C	?	0	12%	4	-1.3
Cc1noc(C)c1COc1ccc(C(=O)N2CCN(c3ccccc3F)CC2)cc1	1	.	.	.	2.0
O=C1c2ccccc2C(=O)N1Cc1cc(-c2ccc(Cl)cc2)no1	-3	.	-8%	-12	-1.9
Cc1ccc(Sc2c(C=O)c3ccccc3n2C)cc1	-6	-22	7%	-52	4.0
O=C(COC(=O)Cn1cnc2ccccc2c1=O)NCCC1=CCCCC1	-4	0	17%	-23	-10
CN1CCc2c(sc(/N=C/c3cc(C(C)(C)C)ccc3O)c2C#N)C1	-9	.	-2%	.	-2.2
Cc1cccc(N2C(=O)CC(N3CCC(c4nc5ccccc5[nH]4)CC3)C2=O)c1 (stereo unspecified)	0	9	-7%	-1	-0.8
O=C(COC(=O)c1ccccc1NCCO)Nc1cccc(S(=O)(=O)NC2=NCCCCC2)c1	4	.	.	.	-7.6
Nc1nnc(SCc2ccccc2F)s1	27	.	-1%	.	0.8
O=C(c1ccc(Br)o1)N1CCN(C/C=C/c2ccccc2)CC1	-8	0	-12%	-5	1.4
CC1=C(C)CC(C(=O)c2ccccc2)C(C(=O)O)C1 (stereo unspecified)	5	-2	10%	-41	-1.6
COc1ccccc1NC(=O)C(C/C=C(/C)Cl)C(C)=O (stereo unspecified)	-3	1	-5%	4	1.2
Cc1ccc(C)c(SCC(=O)OCC(=O)NCc2ccccc2)c1	-1	-1	-2%	.	1.7
Cc1sc2ncnc(N3CCC(C(=O)N(C)CC(=O)Nc4ccccc4Br)CC3)c2c1C	-6	.	.	.	1.6
COc1cc2c(cc1OC)C13CCN4CC5=CCOC6CC(=O)N2C1C6C5CC43 (stereo unspecified) (tested in a mixture with another compound)	-8	.	-2%	.	.
Cc1nccc(-c2cccc(NC(=O)Nc3ccc(Cl)cc3)c2)n1	-4	.	-11%	.	-0.3
O=C(Nc1cc(Cl)ccc1-n1cncn1)c1ccc([N+](=O)[O-])o1	100	.	.	.	-9.6
C/C(=N/NS(=O)(=O)c1ccc(C)c(C)c1)c1ccncc1	-6	.	.	.	3.3
O=c1c(Cl)c2oc3ccccc3nc-2c2ccccc12	98	-6	?	.	2.3
COC(=O)c1ccccc1NC(=S)NC(=O)c1ccccc1	-5	0	-12%	-25	30
COc1cc([N+](=O)[O-])ccc1NC(=O)CSc1nccn1C	-1	0	-1%	.	.
N/C(=N\OC(=O)COc1ccc2ccccc2c1)c1ccncc1	12	8	0%	.	5.8
CCOC(=O)CCNCC1COc2ccccc2O1 (stereo unspecified)	-9	2	1%	-11	-2.5
C=CC(=O)NC(C)(C)CCN1CCOCC1	4	-2	-4%	.	-1.1
Cc1ccc(Cl)cc1N1CCN(CC(=O)Nc2ccc(CN3CCCCC3)cc2)CC1	55	-37	8%	-9	3.9
O=C1N=C(N2CCN(c3cccc4ccccc34)CC2)S/C1=C/c1cccs1	81	-17	86%	4	19
CN1CC[C@@]2(C)c3cc(O)ccc3N(C)C2O1 (stereo partly specified)	8	.	-11%	.	8.1
CCn1cc(S(=O)(=O)CC(=O)Nc2ccc(C)cc2)c2ccccc21	5	-4	-12%	-33	1.3	Arbovirus anti repeat=-6
COc1ccccc1CC1(C)NC(=O)N(CC(=O)N2CCc3ccccc3C2)C1=O (stereo unspecified)	-8	-7	-5%	-39	-2.0
CCN(CC)S(=O)(=O)c1ccc2c(c1)nc(SC(C)C(=O)NCC1CCCO1)n2CC (stereo unspecified)	-22	.	.	.	-1.2
